KCNQ2 pot: potentiators of rat KCNQ2 potassium channel | Potassium voltage-gated channel subfamily KQT member 2 (Rattus norvegicus), O88943 | CHO-K1 KCNQ2, FluxOR thallium flux fluorescence; hits give high values | B-score at 10 µM | 0.54% of 310,000 active | AID 2239, 2010;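 active = fluorescence ratio B-score at least 3 SD of library B-scores, with initial fluorescence B-score within 3 SD, cut at about 5.3 in these data; same plate scores as AID 2156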;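 also: B-score of peak minus minimum over baseline fluorescence ratio after K+ and Tl+ stimulus; positive B-score means potentiation of KCNQ2 with more thallium influx and brighter signal; only the inactives scoring about 0 or higher are listed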
Target sequence (O88943 whole entry, looked up): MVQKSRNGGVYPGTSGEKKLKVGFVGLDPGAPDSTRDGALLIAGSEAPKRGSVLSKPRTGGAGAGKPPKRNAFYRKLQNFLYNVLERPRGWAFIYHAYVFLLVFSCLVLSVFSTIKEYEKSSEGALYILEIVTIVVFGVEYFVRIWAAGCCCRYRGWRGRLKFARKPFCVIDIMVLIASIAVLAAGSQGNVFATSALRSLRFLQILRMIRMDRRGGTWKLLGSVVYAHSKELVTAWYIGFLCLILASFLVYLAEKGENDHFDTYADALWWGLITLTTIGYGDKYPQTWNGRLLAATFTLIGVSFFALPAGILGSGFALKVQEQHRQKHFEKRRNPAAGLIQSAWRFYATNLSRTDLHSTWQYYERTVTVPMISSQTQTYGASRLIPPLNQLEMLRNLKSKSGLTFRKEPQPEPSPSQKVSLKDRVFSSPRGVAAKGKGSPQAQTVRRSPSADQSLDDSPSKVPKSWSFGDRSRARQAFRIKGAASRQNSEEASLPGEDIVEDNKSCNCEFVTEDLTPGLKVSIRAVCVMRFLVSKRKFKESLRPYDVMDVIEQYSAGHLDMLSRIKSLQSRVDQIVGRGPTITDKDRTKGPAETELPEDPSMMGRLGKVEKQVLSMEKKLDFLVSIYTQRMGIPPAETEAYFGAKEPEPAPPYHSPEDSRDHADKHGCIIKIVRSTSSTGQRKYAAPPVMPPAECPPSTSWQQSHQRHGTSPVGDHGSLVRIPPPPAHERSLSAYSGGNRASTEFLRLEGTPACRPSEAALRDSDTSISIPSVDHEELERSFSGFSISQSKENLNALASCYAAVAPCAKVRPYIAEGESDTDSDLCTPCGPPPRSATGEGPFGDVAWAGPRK
KCNQ2 pot baseline: further read-out of KCNQ2 pot, marked with its call; B-score; compound at 10 µM; measured here: initial fluorescence intensity artifact check;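 brightness before thallium and not channel activity; 0 = typical well and far values either way flag optical interference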
The depositor's hits bear a star. Not all compounds are listed; the hit share may differ from the screen's.

The opening 3 records, ahead of the listing:
SMILES	KCNQ2 pot	KCNQ2 pot baseline
Cn1c(N)c(Sc2ccccc2[N+](=O)[O-])c(=O)n(C)c1=O	0.47	0.7
Cc1ccc(OCCCC(=O)Nc2nccs2)cc1	0.9	0.63
Cn1cnnc1SCc1ccc(C(=O)O)cc1	0.13	0.88

All compounds of this part, repeating the preview:
SMILES	KCNQ2 pot	KCNQ2 pot baseline
Cn1c(N)c(Sc2ccccc2[N+](=O)[O-])c(=O)n(C)c1=O	0.47	0.7
Cc1ccc(OCCCC(=O)Nc2nccs2)cc1	0.9	0.63
Cn1cnnc1SCc1ccc(C(=O)O)cc1	0.13	0.88
O=C(COC(=O)c1ccccc1O)Nc1cc([N+](=O)[O-])ccc1Cl	0.71	2
COCCCNC(=O)Cc1c(C)c2cc3c(cc2oc1=O)OC(C)(C)CC3	0.85	-1.4
CC(=O)Nc1cccc(/C(C)=N/NC(=O)c2ccc(O)cc2)c1	1.4	-1.6
Cc1cccc(NC(=O)CCC(=O)OCc2ccc(Br)cc2)c1	1.5	-1.4
COc1ccc(-n2c(COc3ccccc3)n[nH]c2=S)cc1	0.6	-0.44
Cc1ccccc1NS(=O)(=O)c1ccc(C(=O)NCCCN2CCCC2=O)cc1	0.04	0
O=c1[nH]c(CSc2nnc3ccccn23)nc2ccccc12	0.1	-0.68
COc1cc2c(cc1NC(=S)NC(=O)/C=C/c1ccco1)oc1ccccc12	0.52	0.54
COc1ccc(OC)c(C2(O)CSC(=Nc3cccnc3)N2Cc2ccco2)c1 (centres undefined)	0.35	0.83
CC(=O)Nc1ccc(S(=O)(=O)N(C)Cc2ccccc2)cc1	0.66	-0.04
Cc1nc(-c2ccc(NC(=O)c3ccccc3)cc2)cs1	0.13	-1.1
C/C(CC(=O)Nc1cc(C)ccn1)=N\NC(=O)c1cccc(C)c1O	0.41	-0.04
O=C(Nc1nnc(C2CC2)s1)c1cccnc1Oc1ccc(Cl)cc1	0.85	-0.93
CC1(C)CC(=O)C(CC(=O)NC2CCCc3ccccc32)C(=O)C1 (centres undefined)	1.5	1.3
O=C1CCC([N+](=O)[O-])C(c2cccc(Cl)c2Cl)N1 (centres undefined)	0.17	-1.2
CCN1C(=O)C(CC(=O)Nc2ccccc2)S/C1=N\c1ccccn1 (centres undefined)	1	-0.72
Cc1cc(NS(=O)(=O)c2ccc(NC(=O)c3ccco3)cc2)no1	2.1	-0.42

Record cards (already shown). Values in the order: KCNQ2 pot, KCNQ2 pot baseline
Cc1cc(NS(=O)(=O)c2ccc(NC(=O)c3ccco3)cc2)no1 in the list: 2.1, -0.42
COc1ccc(OC)c(C2(O)CSC(=Nc3cccnc3)N2Cc2ccco2)c1 (centres undefined) in the list: 0.35, 0.83
Cc1nc(-c2ccc(NC(=O)c3ccccc3)cc2)cs1 in the list: 0.13, -1.1
CC(=O)Nc1ccc(S(=O)(=O)N(C)Cc2ccccc2)cc1 in the list: 0.66, -0.04
C/C(CC(=O)Nc1cc(C)ccn1)=N\NC(=O)c1cccc(C)c1O in the list: 0.41, -0.04

Next structures follow.
SMILES	KCNQ2 pot	KCNQ2 pot baseline
O=C(NCC1CCCO1)c1sc2cc(Cl)ccc2c1Cl (centres undefined)	1.3	0.34
COc1ccc(Cc2nnc(SCC(=O)Nc3ccccc3)[nH]c2=O)cc1	0.37	-0.03
COc1ccc(CCn2nnnc2C(c2ccccc2)N2CCN(C)CC2)cc1OC (centres undefined)	0.07	-0.31
O=C(c1ccc(F)cc1F)C1CCN(c2ccc([N+](=O)[O-])cn2)CC1	0.12	-0.51
C/C(=N\O)C(C)(C)Nc1ccccc1F	0.41	-0.85
c1ccc(SCc2nc(-c3ccncc3)no2)cc1	0.29	0.46
Clc1ccc(OCc2nc(-c3ccccn3)n[nH]2)cc1	2.7	1.9
COc1ccc(CCNC(=O)Cc2ccccc2)cc1OC	0.25	0.43
CCO[C@H]1OC(C(=O)NCc2ccccc2)=C[C@@H](c2cn(C(C)=O)c3ccccc23)[C@@H]1CCCO	0.3	-0.47
CN1C(=O)OC(C)(C)C1=O	1.9	-0.89
COc1ccccc1NC(=O)N1CCC(C(=O)c2ccc(F)cc2)CC1	0.43	0.04
Cc1ccc(/C=N/NC(=O)CNC(=O)c2ccc(S(=O)(=O)N3CCCC3)cc2)o1	0.03	-0.81
NC(=O)N/N=C1\CCS(=O)(=O)c2ccc(F)cc21	1.1	0.52
CCOc1ccc(C(C)NC(=S)NC2CCCCC2)cc1 (centres undefined)	5.4*	0.37*
COc1ccc(Nc2nc(N)nc(COc3ccc(OC)cc3)n2)cc1	0.01	0
CN(C)c1cc(C(F)(F)F)nc(-c2ccccn2)n1	1.1	-0.6
CNS(=O)(=O)c1ccc2nc(NC(=O)c3ccc(N4C(=O)CCC4=O)cc3)sc2c1	0.24	0.74
Cc1cc(Br)ccc1SCC(=O)OCC(=O)c1c(N)n(C)c(=O)n(C)c1=O	0.28	0.24
CC(=O)Nc1ccc2nc(NC(=O)COc3cccc(C)c3)sc2c1	0.55	-1.4
Cc1cccc(C(=O)N/C(=C\c2ccco2)C(=O)N2CCCCCC2)c1	0.21	-0.41
CCOC(=O)c1csc(N/N=C2\CCc3ccccc32)n1	2.9	-0.04
COc1ccc(/C=N/NC(=O)CCCCCNC(=O)c2ccccc2)cc1	2.7	-0.12
Cc1nnc(SCC(=O)Nc2ccc3c4c(cccc24)CC3)n1C	1.6	1
O=C1CC(NS(=O)(=O)c2cccs2)CN1c1ccc(Cl)cc1 (centres undefined)	1.1	-0.37
Cc1cc(C)c2c(n1)sc1c(N3CCN(CCO)CC3)ncnc12	0.81	-0.77
Cc1cc([N+](=O)[O-])cnc1N1CCOCC1	0.23	0.03
CC(OC(=O)c1ccc2c(=O)n3c(nc2c1)CCCCC3)C(=O)Nc1ncc(Cl)cc1Cl (centres undefined)	0.45	-0.07
Cc1n[nH]c(C)c1C(=O)CC1(O)C(=O)N(CCc2ccccc2)c2ccc(Cl)cc21 (centres undefined)	0.68	1.7
O=C(O)/C=C/c1ccc(OCCCF)cc1	0.44	0.67
CC(NC(=O)COc1ccc(Oc2ccccc2)cc1)C(=O)O (centres undefined)	0.73	0.13
Cc1onc(-c2ccccc2)c1C(=O)NCc1ccccc1F	0.04	0.31
CCOC(=O)c1cc2c(C)[nH]c(C)c2cc(C(=O)OCC)c1=O	2	-1.9
COc1ccccc1-c1coc2c(CN3CCN(CCO)CC3)c(O)ccc2c1=O	0.5	0.62
Cc1cc(C)cc(N(C(=O)CNC(=O)c2ccco2)C(C(=O)NC2CCCCC2)c2cccnc2)c1 (centres undefined)	1.7	1.2
Cn1c2c(c(=O)n(C)c1=O)C(c1ccc(Br)cc1)Nc1ccccc1O2 (centres undefined)	2.1	0.72
Cn1c(=O)n(C)c2cc(C(=O)O)ccc21	0.87	2.1
CCC(Oc1ccccc1)C(=O)Nc1ccc(C)c(S(=O)(=O)N2CCOCC2)c1 (centres undefined)	0.01	0.17
COc1cccc(N2CC(=O)N(NC(=O)CSc3nc(C)cc(C)c3C#N)CC2=O)c1	0.24	0.11
COc1cccc(N(C(=O)CNC(=O)c2ccco2)C(C(=O)NC2CCCCC2)c2ccncc2)c1 (centres undefined)	0.01	0.36
O=C(N/N=C/c1cn(-c2ccccc2)nc1-c1ccc2c(c1)OCCO2)c1ccncc1	0.55	-0.42

Brought forward from above: 2 entries, followed by the next part.
SMILES	KCNQ2 pot	KCNQ2 pot baseline
COc1cccc(N(C(=O)CNC(=O)c2ccco2)C(C(=O)NC2CCCCC2)c2ccncc2)c1 (centres undefined)	0.01	0.36
O=C(N/N=C/c1cn(-c2ccccc2)nc1-c1ccc2c(c1)OCCO2)c1ccncc1	0.55	-0.42
Cn1c(C(=O)c2ccccc2)nc2ccccc21	0.18	-0.49
[O-][n+]1c2cc(C(F)(F)F)ccc2c2n1CCN=C2c1ccc(Cl)cc1	0.6	0.19
Cc1nc(C)c(C(=O)N/N=C/c2cc(Br)ccc2O)s1	2.4	-1.5
CCN1C(=O)C2(SC(NC(C)=O)=NN2C(C)=O)c2cc(C)ccc21 (centres undefined)	0.39	0.67
COc1ccc(C)cc1NC(=O)CSc1nc2scc(C)c2c(=O)[nH]1	0.12	0.6
O=C(Cc1ccccc1)NNC(=O)Nc1cccc(Cl)c1	0.55	-0.67
Cc1nc2c3c(sc2c(=O)[nH]1)NC(=O)CC3c1ccccc1Cl (centres undefined)	1.2	1.7
N#CCSc1nccc(/C=C/c2ccccc2)n1	2.6	0.01
O=C1CC(c2ccccc2)CC(O)=C1C=NCCN1CCN(C(=O)Nc2ccccc2)CC1 (centres undefined)	0.62	0.68
O=C(CSc1nccn1-c1cccc(Cl)c1)Nc1ccc2c(c1)OCCO2	0.02	-1.2
CC(=O)NCCOc1nc(N(C)C)nc(N2CCCCC2)n1	0.56	-0.13
CN(C)C(=O)Cn1cnc2c(cnn2-c2ccccc2Cl)c1=O	0.88	0.26
CCN(CC)S(=O)(=O)c1ccc(S(=O)(=O)N(CC(=O)Nc2ccccc2)CC2CCCO2)cc1 (centres undefined)	0.02	-1.1
CC(C)(C)C(=O)Nc1sc2c(c1C#N)CCN(Cc1ccccc1)C2	4.4	0.36
O=C(Nc1ccccc1F)NC1CCN(Cc2nnnn2Cc2ccc(F)cc2)CC1	0.5	-1.5
O=C(NCCc1ccccc1)C1CCN(C(=O)c2sccc2-n2cccc2)CC1	2.2	-0.9
COc1ccc(OC)c(S(=O)(=O)N(C)CC(=O)Nc2ccc3c(c2)OCCO3)c1	0.44	-0.92
COc1ccc(C)cc1NC(=O)NCc1ccc(F)cc1	0.02	1.6
Cc1ccsc1/C=N\NC(=O)c1ccc2c(c1)OCO2	0.85	-0.32
C/C(=N\NC(=O)c1sccc1C)c1ccncc1	0.08	-1.4
COc1ccccc1CCC(=O)OCC(=O)N1CCN(S(=O)(=O)c2ccc(C)cc2C)CC1	1.7	-2
CCOc1ccccc1NC(=O)c1nc(S(=O)(=O)Cc2ccccc2)ncc1Cl	1.9	-0.07
CN(C)S(=O)(=O)n1cc(/C=C(\NC(=O)c2ccccc2Cl)C(=O)NCCCN2CCOCC2)c2ccccc21	0.69	-2.4
O=C1C[C@@H](c2ccc(O)cc2)Oc2cc(O)cc(O)c21	1.2	-0.29
COc1ccc(NC(=O)CNC(=O)Cc2ccccc2)cc1OC	1.3	-0.06
CCOc1ccc(S(=O)(=O)NCCC(=O)OCC(=O)Nc2cc(C)on2)cc1	0.91	-2.4
CCCNS(=O)(=O)c1ccc(OCC(=O)N2CCOCC2)cc1	1.6	-0.22
O=C(Cc1cccc2ccccc12)NN1C(=O)CSC1=S	0.94	-0.36
CSc1nc(C)cc(Oc2ccc(=O)[nH]n2)n1	0.8	0
Cc1cnc(C(=O)NNC(=O)c2ccc(Br)cc2)cn1	0.03	-0.01
CN(C)S(=O)(=O)c1cccc(NC(=O)COC(=O)c2cc(-c3cccc(Br)c3)nc3ccccc23)c1	0.62	0.05
CC(=O)N1N=C(C)CC1c1ccc(O)cc1 (centres undefined)	0.04	-0.06
O=C(CCn1c(=O)sc2ccccc21)NCc1ccc2c(c1)OCO2	0.01	-1.2
O=C1N=C(N2CCOCC2)SC1=C1CCCCC1	1.1	1.1
Cc1ccc(C2(C)NC(=O)N(Cc3c(C)noc3C)C2=O)cc1 (centres undefined)	0.29	-1.4
COc1cc(/C=N/NC(N)=O)cc(Br)c1OCc1ccccc1C	0.07	0.19
COc1ccc2oc(-c3ccccc3)c(C(=O)O)c2c1	0.1	0.71
CSc1nc2ccc(NC(=O)CSc3nnc(N)s3)cc2s1	1.1	0.48
O=C(O)c1cccc(N/N=C/c2cccs2)c1	1.7	-1.2
Cc1cc(C)nc(NS(=O)(=O)c2ccc(NS(=O)(=O)c3ccc(C#N)cc3)cc2)n1	0.74	-1.3
N#Cc1c(-c2ccccc2)nc(SCc2cccc(C(F)(F)F)c2)[nH]c1=O	5.5*	0.09*
CCCc1cc(=O)[nH]c(SCC(=O)Nc2nc(-c3ccccc3)cs2)n1	1.4	-0.18
Cc1ccc(C2=[N+]([O-])C3(CCCCC/C3=N\NC(N)=O)N(O)C2(C)C)o1 (centres undefined)	0.93	0.59
COc1cc(NC(=O)COC(=O)c2ccccc2F)cc(OC)c1	1.5	-0.27
CC1CCN(S(=O)(=O)c2ccc(S(=O)(=O)NCc3cccnc3)cc2)CC1	0.29	-0.39
CC(=O)Nc1ccc(NC(=O)C(C)OC(=O)C2CCCC2)cc1 (centres undefined)	1	-0.96
Cc1ccc(/C=C2\SC(=S)N(CCC(=O)NNC(=O)c3ccc(O)cc3)C2=O)cc1	0.53	-0.55
O=C(CN1C(=O)/C(=C\c2ccc(F)cc2)Oc2ccccc21)NCc1ccco1	0.57	-2
CN(CC(=O)Nc1sc2c(c1C#N)CCCCC2)Cc1nc2ccccc2c(=O)[nH]1	0.57	1.2
Cc1ccccc1-n1c(SCC(=O)c2c(N)n(C)c(=O)n(C)c2=O)nc2sc3c(c2c1=O)CCCC3	0.74	-0.06
Next section.
SMILES	KCNQ2 pot	KCNQ2 pot baseline
CCN(CC(=O)Nc1cccc(OC)c1)C(=O)c1ccncc1	0.09	0.65
C/C(=C\c1cc(C(=O)O)c(C)o1)CO	3.4	-1.5
CC(=O)NCc1ccc(S(=O)(=O)N2CCCN(C)CC2)cc1	1.2	-1.1
Cc1ccc(NC(=O)C2CCN(C(=O)NC3CCCCC3)CC2)cc1	0.62	1.5
N#CCC(=O)N/N=C/c1ccc(SCC(=O)Nc2ccccc2)o1	0.35	-1.5
CSc1nc(C)nc(C2CC2)c1C#N	0.02	-4.1
CC1=CCC2C(=O)N(c3cccc(C(=O)N(C)C4CCCCC4)c3)C(=O)C2C1 (centres undefined)	0.82	0.37
O=C(NCCCN1CCOCC1)c1ccc(CS(=O)(=O)Cc2ccc(Cl)cc2)o1	0.05	-0.38

Bioassay records: PubChem BioAssay, Johns Hopkins Ion Channel Center
